Screens as filed in PubChem.
VACV mCherry inh: qHTS for Stage-Specific Inhibitors of Vaccinia Orthopoxvirus: mCherry Reporter Primary qHTS | Vaccinia virus mCherry reporter infection, fluorescence; about a quarter of the inactives have no number | Potency, µM (highest dose often 36.5 µM), without a hit: at the top dose activity change, negative = inhibition, hits mostly inhibitors | 310,000 tested, 0.63% active; active = well fitted inhibition curve with a large enough effect; inconclusive = small, poorly fitted or top-dose-only effect; inactive = no such curve, though single readings can be large or run the other way; tested in A549 cells; note: nearly all actives have a fitted effect of over 35% in size; inactives centre near -10
VACV Venus inh: qHTS for Stage-Specific Inhibitors of Vaccinia Orthopoxvirus: Venus Reporter Primary qHTS; Vaccinia virus Venus reporter expression, fluorescence; Potency, µM (top dose mostly 36.5 µM), inactives show at the top dose activity change, negative = inhibition, usual class: inhibitors; 330,000 tested, 0.46% active; AID 720580, 2013; active means well fitted inhibition curve with a large enough effect; inconclusive means small, poorly fitted or top-dose-only effect; inactive means no such curve, though single readings can be large or run the other way; tested in A549 cells; note: nearly all actives have a fitted effect of over 30% in size; inactives centre near -10
The depositor's hits bear a star; i = inactive; ? = inconclusive; · = not tested or not shown; [ ] = remark or other dose. % is set by controls: 0 for no effect and ±100 for the full control effect; potency is the fitted concentration of half-maximal effect.

SMILES | VACV mCherry inh | VACV Venus inh
COc1ccc(-n2cc(C(=O)NCc3ccccc3)c3ccccc3c2=O)cc1 | -12% | 3%
CCCn1c(=N)c(C(=O)NCc2cccnc2)cc2c(=O)n3ccccc3nc21 | -10% | -12%
COC(=O)CNc1n[nH]c(=S)[nH]c1=O | -13% | -12%
COc1ccc(S(=O)(=O)N2CCC3(CC2)OCCN3S(=O)(=O)c2c(C)cc(C)cc2C)cc1 | -3% | -14%
CCn1ncc(CN2CCCC(C(=O)Nc3cccc(-c4cc5ccccc5[nH]4)c3)C2)c1C (centres undefined) | ? | ?
CC[C@@H](C)C(C(=O)N1CCN(C(=O)OC(C)(C)C)CC1)n1cc(-c2cn([C@@H](C)C(=O)N3CCN(C(=O)OC(C)(C)C)CC3)nn2)nn1 (some centres undefined) | 2% | -9%
COc1ccc(C)cc1Nc1nc2c(S(=O)(=O)c3cccc(Cl)c3)nnn2c2ccsc12 | 2% | -2%
O=C(CN1CCN(CC(=O)Nc2ccccc2Cl)CC1)NCC1(N2CCOCC2)CCCCC1 | -12% | -9%
COCCNC(=O)c1ccc2nc(CCc3ccccc3)oc2c1 | -7%[7.34 µM] | -11%[7.34 µM]
COc1ccc(F)c(CN(C)CC2CCCN(CCc3ccc(F)cc3)C2)c1 (centres undefined) | -8% | -19%
NC(=O)COC(=O)c1cccnc1Nc1ccccc1F | -24% | -9%
CCn1ncc(/C=N\NC(=O)c2cc(-c3ccc(C)cc3C)nc3ccccc23)c1C | ? | -29%
COC(/C=C/Nc1ccc(C)cc1)=C(C#N)C#N | -22% | -13%
c1ccc2sc(N3CCN(Cc4ccc5c(c4)OCO5)CC3)nc2c1 | -23% | -10%
C=C1CCN([C@@H](Cc2ccccc2)C(=O)O)S(=O)(=O)c2ccccc21 | i | -3%
O=C1SC(Cc2ccccc2)C(=O)N1c1ccccc1 (centres undefined) | -16% | -10%
COc1cccc(CNC(=O)C2CCN(S(=O)(=O)N3CCCC3)CC2)c1 | i | -2%
COc1ccccc1CNC(=O)C(C)Sc1ccsc1[N+](=O)[O-] (centres undefined) | -4% | 13%
Cc1ccc(OCCSc2nc3ccccc3n2CC(=O)N2CCOCC2)cc1 | -11% | -9%
O=S(=O)(Nc1nccs1)c1ccc(Nc2nnc(-c3ccccc3)c3ccccc23)cc1 | -5% | -10%
O=C1CN(C(=O)COC(=O)CNC(=O)c2ccc(Br)o2)c2ccccc2N1 | -5% | -16%
COc1ccc(-c2c(-c3ccc(OCC(=O)NN)cc3O)n[nH]c2C)cc1OC | -18% | -21%
CCN(C(=O)CSc1nnnn1-c1ccccc1)c1c(N)n(Cc2ccccc2)c(=O)[nH]c1=O | -1% | -13%
CN(C)S(=O)(=O)c1ccc(C(=O)NNc2nc(-c3ccccc3)c3cc(Br)ccc3n2)cc1 | ? | ?
O=C1C[C@H]2[C@H](CO)[C@@H](OC(=O)c3ccc(-c4ccccc4)cc3)C[C@H]2O1 | i | -26%

Next structures.
SMILES | VACV mCherry inh | VACV Venus inh
O=C(NNC(=O)c1ccc(Cl)cc1Cl)c1ccc2ccccc2c1 | i | -7%
Cc1nn(S(=O)(=O)c2ccc(Cl)cc2)c(C)c1S(=O)(=O)N1CCCCCC1 | -4% | -2%
CC(C)C[C@H](NC(=O)c1nc[nH]c1C(=O)NCCCCCNC(=O)OC(C)(C)C)C(=O)OCc1ccccc1 | i | -12%
CC(C)Cn1c(N)c(C(=O)NCC2CCCO2)c2nc3ccccc3nc21 (centres undefined) | 10µM* | 10µM*
COc1ccc(C2CC(c3ccc(OC)cc3OC(C)=O)=NN2C(=O)c2ccccc2)cc1 (centres undefined) | ? | ?
Cc1ccsc1C(=O)OCC(=O)Nc1c(Cl)cccc1C(F)(F)F | i | -8%
CCCCn1c(=O)c(C(=O)Nc2ccccc2)c(O)c2ccccc21 | -6% | -4%
CCOC(=O)c1cnc2c(OC)cccc2c1N1CCN(c2ccccc2F)CC1 | -22% | -7%
Cc1ccc(-c2nc(CCNC(=O)C(=O)Nc3ccc(C)c(C)c3)cs2)cc1 | -6% | -9%
COc1ccc(C(=O)CC(=O)C(=O)Nc2ccccc2Cl)cc1 | i | -11%
O=C(Nc1ccccc1F)c1cc(-c2ccco2)nc2ccccc12 | -13% | -1%
Cc1ccc(S(=O)(=O)NCCC(=O)OC(C)C(=O)NC2CC2)cc1 (centres undefined) | -9% | -18%
CCOc1ccc(C2NC(=O)C(C#N)=C(S)N2c2ccc(C)cc2)cc1OC (centres undefined) | -12% | -1%
N/C(=N\OC(=O)Cc1ccccc1)c1ccccc1Cl | -10% | -4%
O=C(NCc1ccccn1)c1ccc(CS(=O)(=O)Cc2ccc(Cl)cc2)o1 | · | -1%
N/C(=N\OC(=O)Cc1ccc(Cl)cc1)c1ccccn1 | · | -17%
O=C(Nc1nnc(SCCC2OCCO2)s1)C1CC(=O)N(c2ccc(F)cc2)C1 (centres undefined) | -11% | -5%
CCOC(=O)C1CCCN(C(=O)c2ccco2)C1 (centres undefined) | -7% | -3%
COc1ccc(-n2ncc3c(Nc4cccc(C)c4)ncnc32)cc1 | 4% | -16%
COc1ccc(S(=O)(=O)Nc2ccc3c(c2)OCO3)cc1C(=O)O | -1% | -4%
Cc1ccc2nc(-c3ccco3)c(Cc3cccc(Cl)c3)n2c1 | i | -1%
CCCN(CCC)CCNC(=O)c1ccc2c(c1)NC(=O)C(CS(=O)(=O)Cc1cccc(Br)c1)N2 (centres undefined) | -26% | -9%
COc1ccc(N2CC(O)=C(c3nc(-c4ccc(F)cc4)cs3)C2=N)cc1OC | -10% | 6%
Cc1ccc(/C=C/C2=NN(Cc3ccccc3Cl)C(=O)CC2)cc1 | · | ?
O=C(CCCCn1c(=O)c2ccccc2n(Cc2ccccc2Cl)c1=O)NCc1ccc2c(c1)OCO2 | -11% | -14%

Profiles from above.
`Cc1nn(S(=O)(=O)c2ccc(Cl)cc2)c(C)c1S(=O)(=O)N1CCCCCC1` reads VACV mCherry inh: -4%; VACV Venus inh: -2%
`COc1ccc(C2CC(c3ccc(OC)cc3OC(C)=O)=NN2C(=O)c2ccccc2)cc1` (centres undefined) reads VACV mCherry inh: ?; VACV Venus inh: ?

A few values from the list.
In VACV mCherry inh, CCCN(CCC)CCNC(=O)c1ccc2c(c1)NC(=O)C(CS(=O)(=O)Cc1cccc(Br)c1)N2 (centres undefined) is entered as -26%
In VACV Venus inh, N/C(=N\OC(=O)Cc1ccc(Cl)cc1)c1ccccn1 is entered as -17%
In VACV Venus inh, CCOC(=O)c1cnc2c(OC)cccc2c1N1CCN(c2ccccc2F)CC1 is entered as -7%
In VACV mCherry inh, CCOC(=O)C1CCCN(C(=O)c2ccco2)C1 (centres undefined) is entered as -7%
In VACV Venus inh, Cc1ccc2nc(-c3ccco3)c(Cc3cccc(Cl)c3)n2c1 is entered as -1%

Given as tab-separated lines: 4 of the compounds above.
canonical_smiles	VACV mCherry inh	VACV Venus inh
O=C(Nc1ccccc1F)c1cc(-c2ccco2)nc2ccccc12	-13%	-1%
Cc1nn(S(=O)(=O)c2ccc(Cl)cc2)c(C)c1S(=O)(=O)N1CCCCCC1	-4%	-2%
COc1ccc(C(=O)CC(=O)C(=O)Nc2ccccc2Cl)cc1	i	-11%
CC(C)C[C@H](NC(=O)c1nc[nH]c1C(=O)NCCCCCNC(=O)OC(C)(C)C)C(=O)OCc1ccccc1	i	-12%

(list continues)
SMILES | VACV mCherry inh | VACV Venus inh
O=C(Nc1ccc2c(c1)OCCO2)c1ccc(Cl)c(S(=O)(=O)N2CCCCC2)c1 | ? | ?
CCN1C[C@@H]2[C@@H]3C(=O)N(Cc4ccccc4)C(=O)[C@@H]3[C@](C)(C1=O)N2C(=O)c1ccc(C(C)(C)C)cc1 | ? | -16%
COC(=O)C1CCN(C(=O)COC(=O)COc2ccc(C#N)cc2)CC1 | -15% | -3%
CC1(C)CC(=O)C=C(c2ccc(COC(=O)c3cccc(C(F)(F)F)c3)cc2)C1=O | -10% | 3%
COc1ccc(NC(=O)CS(=O)(=O)Cc2nc(-c3ccc(C)cc3)oc2C)cc1 | i | -17%
COc1ccc(-c2onc(C)c2C)cc1S(=O)(=O)NCc1ccco1 | -7% | -20%
CCOc1ccc(NC(=O)CN(C)C(=O)CN2C(=O)NC3(CCCC3)C2=O)cc1OCC | ? | -3%
CC1C(=O)N(Cc2cn(CCC3OCCO3)nn2)CCS(=O)(=O)N1Cc1ccc(-c2ccc(Cl)cc2)cc1 (centres undefined) | i | ?
CCCN(C(=O)CCCSc1nc2ccccc2[nH]1)c1c(N)n(Cc2ccccc2)c(=O)[nH]c1=O | -10% | -23%
S=C(Nc1ccc(Cl)cc1Cl)NC1CCN(Cc2ccccc2)CC1 | -9% | ?
CCOC(=O)c1c(NC(=O)c2ccno2)c2cc([N+](=O)[O-])ccc2n1C | -21% | -15%
C/C(=N\OC(=O)c1ccccc1)c1cc(-c2ccc(Cl)cc2)no1 | · | 2%
COc1ccccc1CNC(=O)c1ccc(Nc2nc3ccccc3n3nnnc23)cc1 | -17% | -16%
COC(=O)/C=C/c1ccc(OC(=O)OC)c(OC(=O)OC)c1 | -5% | -20%
C/C(Cc1ccccc1)=N\NC(=O)CNC(=O)c1cccc(Br)c1 | -2% | -5%
COc1ccc(-c2coc3c(C(=O)Nc4ccc(OC)nc4)cccc23)c(C)c1 | i | -20%
CCOC(=O)c1sc(NC(=O)COc2ccccc2Cl)c(C(=O)OCC)c1C | 5% | 4%
CSc1ccc(NS(=O)(=O)c2ccc(-n3cnnn3)cc2)cc1 | -11% | -17%
O=C1NC(=O)C(CCc2ccncc2)(CCc2ccncc2)C(=O)N1Cc1ccc(F)cc1 | i | -5%
COc1ccc(C(=O)C(C)OC(=O)C2CC3CCCC(C2)C3=O)cc1 (centres undefined) | i | -20%
O=C(NCc1ccccc1)c1csc(-c2cccnc2)n1 | i | -19%
N#CCc1nc(C(c2ccccc2)c2ccccc2)no1 | 22% | 11%
NNC(=O)c1[nH]c2ccccc2c1-c1ccccc1 | -13% | ?
O=S(=O)(c1cnccc1N1CCN(/N=C/c2ccc(Br)cc2)CC1)N1CCCCC1 | · | -13%
Cc1cccc(C(=O)NNS(=O)(=O)c2ccc(F)cc2)c1 | -3% | -11%

Additional entries follow.
SMILES | VACV mCherry inh | VACV Venus inh
OCC[C@H]1C[C@@H](O)[C@H](O)[C@]2(Cc3ccccc3O2)O1 | i | 3%
Cc1cc(-n2c(C)cc(C(=O)CSc3nncn3C(C)C)c2C)no1 | -10% | -9%
Cc1ccc(NC(=O)C(=O)C2C(=O)Nc3ccccc32)cc1 (centres undefined) | -13% | -9%
COc1cc(C(=O)NCc2nnnn2-c2ccc(C)c(C)c2)cc(OC)c1OC | -3% | -2%
COc1ccc(/C=C/c2cc(O)cc(O[C@H]3OC(CO)C(O)C(O)C3O)c2)cc1 (some centres undefined) | -19% | 0%
CCCS(=O)(=O)N1CC(=O)N(c2cccc(Cl)c2C)C(C)(C(=O)NC2CCCC2)C1 (centres undefined) | -11% | -7%
CN(C)CCNc1nc(Oc2ccccc2)c2sccc2n1 | 6% | -7%
CN1C2CCC1CC(NS(=O)(=O)c1cccc(C(F)(F)F)c1)C2 (centres undefined) | -23% | -6%
O=S(=O)(c1ccccc1)N1CCN(CCc2ccccc2)CC1 | -9% | -9%
COc1ccccc1C1/C(=C(/O)c2ccccc2)C(=O)C(=O)N1CC(C)O (centres undefined) | · | 1%
O=C(COc1cccc(Cl)c1)N/N=C\c1cc2ccccc2nc1Cl | i | -8%
O=C(O)c1ccccc1NS(=O)(=O)c1cccc(N=Nc2c(O)[nH]c(=S)[nH]c2=O)c1 | i | 6%
CC1(C(=O)NCc2ccc3c(c2)OCO3)CCN1C(=O)CC1CCCC1 (centres undefined) | 43%[activator] | -12%
CC1(C(=O)Nc2ccc3c(c2)OCCO3)CSCC(=O)N1CCCn1ccnc1 (centres undefined) | -5% | -5%
CCCCn1c(=O)c2oc3ccccc3c2n(CC(=O)Nc2ccccc2OC)c1=O | -21% | -14%
c1ccc(-c2nnc(NC3=NCCC3)o2)cc1 | -10% | -8%
Cc1cc(C)cc(NC(=O)C(=O)NCC(c2cccnc2)N2CCOCC2)c1 (centres undefined) | -10% | -14%
Cc1cc(C)cc(NC(=O)COC(=O)COc2cccc3c2OC(C)(C)C3)c1 | -9% | -8%
O=C(Nc1ccc(Cl)cc1)C1C2CCC3C(CCC21)C3(Cl)Cl (centres undefined) | -12% | -9%
CCCCCn1c(CCC(=O)Oc2ccccc2OC)nc2c1c(=O)[nH]c(=O)n2CCCC | · | 14%
CS(=O)(=O)N1CCC(C(=O)NCc2ccc(F)cc2Cl)CC1 | 0% | -17%
COC(=O)c1sc2nc(-c3ccco3)ccc2c1N | -13% | 1%
COc1ccc(N2CC(O)=C(c3nc(-c4ccc(Br)cc4)cs3)C2=N)cc1 | -15% | -14%
CN(/N=C/C=C/c1ccccc1)c1cc(=O)n(C)c(=O)[nH]1 | -8% | -9%
CC=C(C)C(=O)OC1CCN2CC=C(COC(=O)C(O)(C(C)OC)C(C)(C)O)C12 (centres undefined) | -18% | -7%
Cn1c(SCc2ccc(Br)cc2)nnc1-c1ccccn1 | -14% | -10%
